D2 potentiator: human D2 receptor positive allosteric modulation | P14416 | DiscoveRx D2 beta-arrestin cells, luminescence, 90 min; 100% = 57 uM dopamine signal | potentiation, % (no concentration beside the values) | 360,000 compounds, 0.23% hits; active = potentiation of 50% or more; inconclusive = 30% to 50%; inactive = 30% or less;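 also: compound concentration not given in the record; tested on top of an EC20 dose of dopamine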
Target sequence (P14416 whole entry, looked up): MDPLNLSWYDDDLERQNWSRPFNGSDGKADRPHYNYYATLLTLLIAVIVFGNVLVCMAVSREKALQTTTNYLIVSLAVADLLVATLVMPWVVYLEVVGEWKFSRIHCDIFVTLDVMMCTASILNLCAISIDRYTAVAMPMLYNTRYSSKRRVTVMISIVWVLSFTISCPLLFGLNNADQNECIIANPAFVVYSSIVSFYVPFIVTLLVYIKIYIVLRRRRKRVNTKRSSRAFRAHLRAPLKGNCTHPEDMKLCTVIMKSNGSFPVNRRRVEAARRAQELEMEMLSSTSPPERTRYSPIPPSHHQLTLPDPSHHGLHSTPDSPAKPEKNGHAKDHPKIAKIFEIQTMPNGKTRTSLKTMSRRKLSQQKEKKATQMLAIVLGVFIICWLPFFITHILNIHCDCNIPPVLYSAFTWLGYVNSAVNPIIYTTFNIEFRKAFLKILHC
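D2 cells co-treated with compound plus 50 nM dopamine (EC20) for 90 min at 37 deg C to detect potentiation. Beta-arrestin recruitment was read as enzyme-fragment luminescence after 1 h at ambient temperature. Full response was set by 57 uM dopamine.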
Six1-Eya2 inh: inhibitors of human Six1/Eya2 interaction; AID 651725; AlphaScreen GST-Six1/His-Eya2 binding, biochemical; hits give low values; control for the full effect not named in the record; activity change, % (test concentration not listed); 360,000 compounds, 0.56% hits; Q15475+O00167; in the data active = activity change below about -65%; inconclusive = about -30% to -65%; inactive = above about -30%; also: % is scaled to controls: 0 for no effect and ±100 for the full control effect
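Homogeneous AlphaScreen proximity assay pairing GST-Six1 with His-tagged Eya2 (added as 5X mix: 250 nM and 500 nM) in 50 mM Tris pH 8.0, 300 mM NaCl, 1 mM TCEP. Glutathione donor and nickel acceptor beads; 1 h, 37 °C, dark.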
CtBP-E1A blk: inhibitors of CtBP/E1A interaction. AlphaScreen GST-E1A/His-CtBP binding, 1536-well; hits give low values; control for the full effect not named in the record. activity change, % (test concentration not listed). 340,000 compounds, 0.49% hits; in the data active means activity change below about -65%; inconclusive means about -30% to -65%; inactive means above about -30%; also: % is scaled to controls: 0 for no effect and ±100 for the full control effect
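AlphaScreen with 125 nM GST-E1A and 125 nM His-CtBP (5X stocks) in Tris pH 8.0, 300 mM NaCl, BSA, Tween 20, TCEP. Compounds preincubated 2 h at 37 deg C, then glutathione donor/nickel acceptor beads added for 1 h at 37 deg C in dark.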
D2 ag: human D2 receptor agonism in beta-arrestin assay; 360,000 compounds, 0.084% hits; activation, % (test concentration not listed); P14416; DiscoveRx PathHunter D2 beta-arrestin, luminescence, 90 min; 100% = 57 uM dopamine signal; in the data active = activation above about 40%; inconclusive = about 15% to 40%; inactive = below about 15%; also: compound concentration not given in the record; the text of the record calls up to 30% inactive
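DiscoveRx PathHunter D2 beta-arrestin cells (2,100/well) attached overnight, then compound-stimulated 90 min at 37 C in HBSS/10 mM HEPES/0.1% Tween-20 buffer; beta-galactosidase complementation read by luminescence after 1 h at ambient temperature. Dopamine 57 uM final (EC100) as control.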
PINK1 expr mod: changes PINK1 expression | PINK1 immunofluorescence, high-content cytometry, 24 h | Potency, µM (highest dose often 76.6 µM), for the others: at the top dose activation (PINK1 increase), hits mostly activators | 410,000 compounds, 0.2% hits; active = well fitted activation curve with a large enough effect; inconclusive = small, poorly fitted or top-dose-only effect; inactive = flat fitted curve, though single readings scatter; cell line not stated here;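 also: potency is read from the fitted curve at half-maximal effect; % of control where 0% means no effect; nearly all actives have a fitted effect of over 65% in size; a mitochondrial uncoupler was the plate control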
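Compound titrations (5 concentrations, 24 h) on a stable cell line; DMSO and CCCP controls. Endpoint: fixed-cell PINK1 immunofluorescence with mitochondrial, cell and nuclear markers, scanned by microplate cytometer.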
TRPML1 agonist: agonists of human TRPML1 channel; 410,000 compounds, 0.12% hits; TRPML1-expressing cells, Ca2+ dye fluorescence, FDSS; host cell line not named in the record; reference of the full effect not given here; activation, % (no concentration beside the values); AID 624414; Q9GZU1; in the data active = activation above about 50%; inconclusive = about 30% to 50%; inactive = below about 30%; also: 0% is about no effect; the text of the record puts the active cut at 80%
Target sequence (Q9GZU1 whole entry, looked up): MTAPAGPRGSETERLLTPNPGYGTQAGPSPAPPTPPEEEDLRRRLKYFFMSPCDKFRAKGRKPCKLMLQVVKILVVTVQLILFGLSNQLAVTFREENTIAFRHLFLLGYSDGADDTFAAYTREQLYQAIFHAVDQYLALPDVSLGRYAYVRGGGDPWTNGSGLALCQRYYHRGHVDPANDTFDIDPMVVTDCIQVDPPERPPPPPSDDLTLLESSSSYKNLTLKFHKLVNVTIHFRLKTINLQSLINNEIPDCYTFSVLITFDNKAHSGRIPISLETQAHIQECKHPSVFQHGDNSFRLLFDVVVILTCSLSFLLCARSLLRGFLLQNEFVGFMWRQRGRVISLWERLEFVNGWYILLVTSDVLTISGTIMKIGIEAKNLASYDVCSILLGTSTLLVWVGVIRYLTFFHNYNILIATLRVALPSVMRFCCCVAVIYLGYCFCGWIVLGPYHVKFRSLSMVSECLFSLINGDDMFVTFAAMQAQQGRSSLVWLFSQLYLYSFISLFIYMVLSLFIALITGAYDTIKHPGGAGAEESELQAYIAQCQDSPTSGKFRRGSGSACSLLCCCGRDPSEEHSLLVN
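Kinetic FDSS Ca2+ read in Tet-induced TRPML1-DL cells (ABD Ca8 dye plus quencher, 45-90 min RT loading): baseline, then compound, then 110 s agonist window; EC80 agonist 54-4 at 4uM final added afterwards for a 110 s antagonist window.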
Active calls of the source: *; u = inconclusive; x = not tested or not shown; & = joins results of further samples; [ ] = dose if it differs, or a comment.

smiles	D2 potentiator	D2 ag	PINK1 expr mod	TRPML1 agonist	Six1-Eya2 inh	CtBP-E1A blk
COc1ccc(CN2CCN(c3ccccn3)CC2)c(OC)c1C	13&-20	13&5.3	1.5%&0.7%	0.6&1.5	3&2	-13
OC1CCN(CC(O)C(F)(F)F)CC1 (configuration not stated)	-18	3.5	-0.6%	0.9	1	-8
CC(=O)Cn1ncc(N2CCOCC2)cc1=O	-8	-1.8	0.8%	-0.5	0	4
CCOC(=O)N1CCC(NS(=O)(=O)c2cc(Br)cnc2N)CC1	0	-2.6	-0.9%	-0.8	-4	-1
CC1CC1C(=O)OCC(=O)N(C)c1c(N)n(Cc2ccccc2)c(=O)[nH]c1=O (configuration not stated)	4	-3.0	-2.3%	0.1	4	-1
CCN1CCN(C(=O)NC2CCCCC2)CC1	-3	-2.6	0.4%	0.9	11	-9
Cc1csc(SCC(=O)N(C)C2CCS(=O)(=O)C2)n1 (configuration not stated)	-4	2.3	0.4%	0.6	-6	7
O=C(O)C1=C[C@H](c2ccc(Br)cc2)C[C@H](OCc2ccc(CO)cc2)O1	-5	-2.3	2.0%	-0.3	-18	x
CCCCN(Cc1ccco1)S(=O)(=O)c1csc(C(N)=O)c1	-42	2.9	2.7%	-0.7	-6	-18
CCCCSc1nnc([C@@H]2CCCN2C(=O)OC(C)(C)C)o1	-10	-1.5	1.5%	-1.0	-9	8
COc1ccc(-n2nc3c(c2NC(=O)C2CCCC2)CS(=O)(=O)C3)cc1	-9	-3.9	-1.8%	0.0	2	-5
COc1ccc(C(CNC(=O)c2cccc(NS(=O)(=O)c3ccc(Br)cc3)c2)N(C)C)cc1 (configuration not stated)	2	-2.4	1.5%	2.3	-2	0
O=C(O)c1ccc(OCC2CCCO2)cc1 (configuration not stated)	0	2.5	1.1%	0.7	-1	8
Cn1c(SCC(=O)Nc2cccnc2)nnc1-c1ccccc1F	4	8.9	0.1%	0.7	5	3
CCc1ccc(N2CC(C(=O)Nc3ccc4c(c3)OCCO4)CC2=O)cc1 (configuration not stated)	-1	2.7	2.0%	1.1	0	2
COc1ccc(S(=O)(=O)N2CCCOC2CNC(=O)C(=O)NCCCN2CCOCC2)cc1 (configuration not stated)	-12	-2.0	1.4%	0.2	10	-5
CCOc1cccc(NC(=O)/C(C#N)=C/c2cccnc2)c1	-10	-3.2	0.5%	-0.9	-2	-6
COc1cc(S(=O)(=O)NCc2ccc3c(c2)OCO3)c(OC)cc1C	-6	-1.4	0.6%	-0.1	3	9
CC[C@@H]1C=C(C(=O)O)[C@H](c2ccc(C)cc2)N1S(=O)(=O)c1ccc(C)cc1	-6	-3.2	-0.9%	1.9	4	-4
Fc1ccc(C(c2nnnn2C2CCCC2)N2CCN(Cc3ccncc3)CC2)cc1 (configuration not stated)	-2	-2.7	-1.1%	1.0	6	1
O=C(NC1CCCc2ccccc21)C1CCC(CNc2c(N3CCOCC3)c(=O)c2=O)CC1 (configuration not stated)	7	-4.1	0.4%	-0.6	-16	0
O=C(Oc1ccc(OC(=O)N2CCCCC2)cc1)c1ccccc1	-12	1.0	7.6%[38.3 µM]	-0.2	0	6
COc1ccc(CN=CC2=C(O)CC(C)(C)CC2=O)cc1	9	u	1.6%	0.4	2	2
Cc1ccc(O)c(Nc2ncnc3ccc([N+](=O)[O-])cc23)c1	-10	4.0	1.3%	1.0	-17	-14
O=C(N/N=C/c1ccc(O)c(O)c1)NC12CC3CC(CC(C3)C1)C2	-3	4.2	2.3%	11	-9	-11
O=C(CCCOc1ccccc1)Nc1nccs1	6	-3.1	0.0%	-1.3	-14	-12
CCOC(=O)C1CCCN(S(=O)(=O)c2ccc3c(c2)NC(=O)CO3)C1 (configuration not stated)	-9	-11	-0.6%	-0.8	2	8
O=C(NNC(=O)C1CCN(S(=O)(=O)c2ccc(Cl)cc2)CC1)c1ccncc1	-4	-0.8	-0.8%	-0.3	-3	-19
CCN(CC)c1c([N+](=O)[O-])ncn1C	-15	-0.6	0.0%	0.6	8	11
Cc1nc2c(c(=O)n1CCC1=CCCCC1)c1nc3ccccc3nc1n2/N=C/c1ccco1	11	-12	1.8%	0.0	-12	-5
CCOC(=O)c1ncccc1NC(=O)CC(=O)Nc1cccnc1C(=O)OCC	-8	5.3	0.1%	1.0	-95*	x
CCOC(=O)C1=C(C)NC(C)=C(C(=O)OCC)C1C(=O)OCC(=O)N(C)Cc1ccccc1	-7	-3.6	2.7%	1.6	3	-11
CCCCN(C)C(=O)c1nc2ccccn2c1CN1CCN(C/C=C/c2ccccc2)CC1	-25	0.0	0.4%	3.4	-10	1
O=C(CNC(=O)C1CCCCC1)NNC(=O)c1ccc(Cl)cc1Cl	14	3.2	0.8%	1.0	5	2
C=CCN(c1ccccc1)S(=O)(=O)c1cccc(C(=O)NCc2ccco2)c1	-10	-3.5	0.2%	2.5	-16	-9
O=C(Nc1nnc(C2=COCCO2)o1)c1ccc([N+](=O)[O-])cc1	-8	-6.0	1.0%	-0.4	14	0
CCCc1nc2cc(C)c(Br)c(C)n2c1CC1CCCCC1	x	x	5.1%	-0.7	6	11
COc1ccc(N(CC(=O)NC2CCS(=O)(=O)C2)S(=O)(=O)c2cc(C)ccc2C)cc1 (configuration not stated)	-10	-0.9	-0.9%	0.4	-6	-6
COc1cc(CN2CCC(Cc3ccccc3)CC2)c([N+](=O)[O-])cc1OC	-21	-3.5	0.4%	-0.8	-20	-7
CCN(CC)c1ccc(C(=C2C=CC(=[N+](CC)CC)C=C2)c2ccc(S(=O)(=O)O)cc2S(=O)(=O)[O-])cc1	-7	-8.8	2.2%	-0.1	u	u

A few values from the results shown:
COc1cc(CN2CCC(Cc3ccccc3)CC2)c([N+](=O)[O-])cc1OC in CtBP-E1A blk: -7
CCCCN(C)C(=O)c1nc2ccccn2c1CN1CCN(C/C=C/c2ccccc2)CC1 in D2 ag: 0.0
CCN(CC)c1ccc(C(=C2C=CC(=[N+](CC)CC)C=C2)c2ccc(S(=O)(=O)O)cc2S(=O)(=O)[O-])cc1 in D2 ag: -8.8

Carrying on.
smiles	D2 potentiator	D2 ag	PINK1 expr mod	TRPML1 agonist	Six1-Eya2 inh	CtBP-E1A blk
CN1CCN(C(=O)c2ccccc2NC(=O)COc2ccccc2Cl)CC1	-9	-4.5	1.6%	0.3	1	-1
O=C(Nc1cccnc1)c1cc(-c2ccc(Cl)cc2)on1	-3	5.4	0.8%&1.2%	0.1&-0.8	-17	x
CCCNC(=O)C(=O)NCC1CCCN1CC (configuration not stated)	0	-3.9	2.4%	0.8	4	9
O=C(N/N=C\c1cc2c(cc1Cl)OCO2)c1cccnc1	-13	-3.0	0.9%	0.4	4	3
CCOC(=O)C1=C(C)N(C)C(=S)NC1c1cccc(Cl)c1Cl (configuration not stated)	1	-1.2	1.9%	1.5	-1	6
O=C1C2C(C(=O)N1/N=C/c1cc([N+](=O)[O-])c(O)cc1O)C1C=CC2C12CC2 (configuration not stated)	-21	-6.4	-1.6%	0.7	-9	-23
O=C(NCN1CCOCC1)c1cnccn1	-4	0.5	-0.8%	1.6	-5	6
COc1ccccc1CNC(=O)CNCC1CCCO1 (configuration not stated)	-11	-2.8	3.1%	-0.4	0	10

The final 2 entries of the part before are carried over, then new ones follow.
smiles	D2 potentiator	D2 ag	PINK1 expr mod	TRPML1 agonist	Six1-Eya2 inh	CtBP-E1A blk
O=C(NCN1CCOCC1)c1cnccn1	-4	0.5	-0.8%	1.6	-5	6
COc1ccccc1CNC(=O)CNCC1CCCO1 (configuration not stated)	-11	-2.8	3.1%	-0.4	0	10
CCOC(=O)c1[nH]c(=O)c2ccccc2c1O	-16	-5.2	-4.0%[38.3 µM]	0.7	8	3
NC(=O)CC(NC(=O)Cc1cccc2ccccc12)c1ccc(NC2CCCCC2)c([N+](=O)[O-])c1 (configuration not stated)	-11	-4.5	-0.3%	0.0	0	-4
Cc1nc(C)c(C(=O)Nc2cccc(F)c2)s1	-2	-4.9	0.2%	0.5	-2	6
CCc1nn(CC(=O)NC2CCN(Cc3ccccc3)CC2)c(=O)c2cc3cc(F)ccc3n12	-20	-1.9	9.2%	-1.0	0	0
Cc1cccc(C)c1NC(=O)CN(C)CC(=O)N(C)CC(=O)Nc1ccccc1Br	-3	7.3	1.9%	-0.7	8	x
COC(CNC(=O)c1ccc2c(c1)ncn2-c1ccc(F)cc1F)OC	-10	-3.8	-2.1%	-0.3	0	1
Cc1cc(C)cc(NC(=O)COC(=O)CCc2ccc(S(=O)(=O)N3CCOCC3)cc2)c1	-10	2.2	1.8%	0.8	-2	27
CC(=O)N1CCN(Cc2nc3cc(NC(=O)c4ccccc4Cl)ccc3n2C)CC1	-2	-10	2.1%	-0.6	0	4
CCN=C1SC(C(=O)Nc2ccc(Cl)c(Cl)c2)CC(=O)N1CC (configuration not stated)	-8	-4.4	10%	-1.3	1	5
Cc1ccc(CCC(=O)Nc2ccc(Br)cc2)o1	-4	0.8	8.1%	1.4	-9	-2
CCc1ccc(NC(=O)Cn2c3[n+](c4c(F)c(F)ccc42)CCCCC3)cc1	-10	-4.5	2.6%	-0.4	1	-7
CS(=O)(=O)Nc1ccc(-c2cn3cccnc3n2)cc1	-6	6.8	2.1%	0.3	-1	x
COc1ccc(NC(=O)CSc2nnc(Cn3cnc([N+](=O)[O-])n3)n2C)cc1	20	14	2.9%	0.0	-3	20
CC1(c2nnc(-c3ccncc3)o2)CC(c2ccc(F)cc2)=NO1 (configuration not stated)	-11	-1.7	1.0%	0.5	9	x
Cc1ccc(C(=O)Nc2ncn[nH]2)cc1	-5	-1.6	-0.5%	0.6	-13	0
O=C(C1CCCN(S(=O)(=O)Cc2ccccc2)C1)N1CCc2ccccc21 (configuration not stated)	-6	-0.6	-0.4%	0.8	0	1
Cc1ccc(N2CC(C(=O)N3CCOCC3)CC2=O)cc1Cl (configuration not stated)	-1	0.1	2.6%	0.8	-12	-7
CC1(C)CC2(CCO1)N1CC3(C)CN2CC(C)(C1)C3O (configuration not stated)	1	-1.6	0.4%	-0.7	5	-1
COc1ccc(OC)c2sc(N(CCN(C)C)C(=O)c3cc(Cl)sc3Cl)nc12	-16	-5.9	7.1%	-0.4	-20	-23
CC1(C)CC(=O)C2=C(C1)NC(=O)NC2c1ccc([N+](=O)[O-])cc1 (configuration not stated)	-5	0.5	-0.4%	-0.6	2	1
COC(=O)c1ccccc1OCCOc1ccccc1C(=O)OC	-8	0.1	-0.3%	0.1	15	1
O=C(CCC1CCN(Cc2ccc(C#CCCO)cc2)CC1)NC1CC1	-6	-2.2	-0.5%	0.4	5	-3
Cc1oc(C(C)(C)C)cc1C(N)=O	-5	2.1	-0.6%	0.5	-7	-6
CNC(=O)Nc1cccc(-c2ccnc(C)n2)c1	-3	-16	1.6%	-0.3	4	2

Source: PubChem

Rows are unselected; about 1.3% have a hit in one of these screens.
